RE007 growth inh: less growth of the S. pombe RE007 Vpr strain; 0.21% of 360,000 active; Potency, µM (series often up to 92.2 µM), for inactives: at the highest dose activity change, negative = less growth; S. pombe RE007 Vpr strain, BacTiter-Glo ATP luminescence, 24 h; control for the full effect not named in the record; active = well fitted falling curve with a large enough effect; inconclusive = small, poorly fitted or top-dose-only effect; inactive = no such curve, though single readings can be large or run the other way;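 further: on the % scale 0 is the no-effect control and ±100 the full control effect; nearly all actives have a fitted effect of over 50% in size; the assay follows cell death caused by Vpr and the record does not say whether a fall means rescue or toxicity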
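Fission yeast strain RE007, carrying one chromosomally integrated HIV-1 vpr copy, was seeded at OD 0.01 in PMG+AL medium with 23 nL pinned compound. After 24 h at 30 °C and 99% humidity, viability was read by BacTiter-Glo luminescence.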
2A StopGo: FMDV 2A StopGo reporter, luciferase signal; human cells with a luciferase reporter of 2A StopGo recoding; control for the full effect not named in the record; Potency, µM (doses to about 57.9 µM), without a hit: at the top dose signal change, negative = less light; 1.2% of 410,000 active; active = well fitted falling curve with a large enough effect; inconclusive = small, poorly fitted or top-dose-only effect; inactive = no such curve, though single readings can be large or run the other way; tested in HEK293T cells; further: on the % scale 0 is the no-effect control and ±100 the full control effect; nearly all actives have a fitted effect of over 45% in size; luciferase light after 4 h
SARS PLP yeast: blocks SARS-CoV papain-like protease in a yeast assay. S. cerevisiae expressing SARS-CoV PLpro, growth rescue; control for the full effect not named in the record. Potency, µM (titrated, usually from 32.9 µM), inactives show top-dose activity, positive = growth rescue. 0.19% of 330,000 active; active means well fitted rising curve with a large enough effect; inconclusive means small, poorly fitted or top-dose-only effect; inactive means no such curve, though single readings can be large or run the other way; further: 0% is about no effect; nearly all actives have a fitted effect of over 55% in size; growth read by luminescence after 48 h
The depositor's hits bear a star; ? = inconclusive; [ ] = another dose, or the depositor's remark. Potency means the concentration at half of the fitted maximal effect. This is a subset; count on the stated rates, not on these rows.

no.	structure	RE007 growth inh	2A StopGo	SARS PLP yeast
1	CC(C(=O)OCc1nnc(-c2ccccc2)o1)N1C(=O)C2CCCCC2C1=O (stereo not drawn)	-1%	50%[activator]	0%
2	CC(C)CN(C(=O)CCNC(=O)c1ccc(Cl)cc1)c1c(N)n(CC(C)C)c(=O)[nH]c1=O	0%	-20%	7%
3	O=C(COC(=O)c1ccc(N2CCCC2=O)cc1)Nc1ccccc1	-4%	-12%	-7%
4	CCOC(=O)C1=C(C)NC(C)=C(C(=O)OCC)C1C(=O)OCC(=O)NCc1ccc(F)cc1	7%	-24%	1%
5	COc1cccc(CNC(=O)COC(=O)CNC(=O)c2ccc(-c3ccccc3)cc2)c1	1%	1%	-7%
6	O=C(C[C@H]1C/C=C/CC[C@H](Cc2ccc(F)cc2)C(=O)O[C@H](c2ccccc2)CNC1=O)NCCO	-8%	-7%	3%
7	Cc1ccccc1-n1c(SCC(=O)c2c(N)n(C3CC3)c(=O)[nH]c2=O)nnc1N1CCOCC1	6%	-16%	3%
8	O=C(CN1C2CCCC1CC(NC(=O)c1ccccc1)C2)NC1CC1 (stereo not drawn)	-8%	8%	0%
9	CC(C)(C)C(=O)Nc1ccc(S(=O)(=O)NC2=NCCCCC2)cc1	18%	-12%	0%
10	Cc1cc(NC(=O)CSc2n[nH]c(-c3ccc(Cl)cc3Cl)n2)no1	-13%	-17%	-6%
11	Cc1cc(NC(=O)CSc2[nH]c(=O)cc(C(F)(F)F)c2C#N)no1	11%	-5%	-10%
12	CN1CCN(S(=O)(=O)c2cccc(C(=O)N3CCN(c4ccccc4F)CC3)c2)CC1	9%	-17%	3%
13	CC1(C)NC(=O)N(CCC(=O)Nc2cc(C(F)(F)F)ccc2Cl)C1=O	3%	0%	-1%
14	O=C(Nc1nc(-c2ccccn2)cs1)c1cc(S(=O)(=O)N2CCOCC2)ccc1F	3%	-23%	7%
15	O=C(COc1ccc(Br)cc1)OCC(=O)N1CCOCC1	7%	-4%	-3%
16	COCCOC(=O)c1c(NC(=O)COC(=O)c2ccc(C)o2)sc(C(N)=O)c1C	2%	?	1%
17	CCc1ccc([C@@H]2CC=C(C(=O)O)[C@H](c3cccc(Cl)c3)N2S(=O)(=O)c2ccc(C)cc2)cc1	7%	-1%	6%
18	COCCN=C(NS(=O)(=O)c1cccs1)c1ccccc1Cl	1%	5%	-3%
19	O=C(NCc1ccccc1Cl)C1CCN(c2cnccn2)CC1	16%	-10%	0%
20	COc1cc(C(=O)NCC(=O)NCCCSc2ccccc2)cc(OC)c1OC	2%	-20%	1%
21	Cc1noc(NS(=O)(=O)c2ccc(NC(=O)c3ccc(N(C)C)cc3)cc2)c1C	-1%	9%	2%
22	C=CCC[C@@H](Cc1ccc(F)cc1)C(=O)OC[C@H]1CCCN1C(=O)[C@@H](CC=C)CC(=O)N[C@H](CO)Cc1ccccc1	2%	?	5%
23	CCc1cc(Cn2nc(-c3ccccc3)cc2C(=O)NCCOC)on1	-10%	-21%	-3%
24	CC1(C)C(=O)Nc2ccccc2N1C(=O)COc1ccc(C#N)cc1	28%	-16%	-5%
25	CCC(C)c1ccccc1N1CC(C(=O)NCCCn2nc(C)cc2C)CC1=O (stereo not drawn)	-4%	-11%	0%
26	O=C(NCCc1ccccc1)C(=O)NCC(c1ccco1)N1CCOCC1 (stereo not drawn)	-17%	-14%	-1%
27	O=C(c1ccc(F)cc1)N1CCC(C(=O)N(Cc2ccccc2)c2ccccc2)CC1	2%	0%	7%
28	CC(C)(C)OC(=O)C[C@H]1C/C=C\C[C@@H](CC(=O)N[C@H](CO)Cc2ccccc2)C(=O)NC[C@@H](c2ccccc2)OC1=O	7%	-17%	-2%
29	COc1ccc(C(=O)OCC(=O)N(C)C2CCS(=O)(=O)C2)cc1Br (stereo not drawn)	?	-16%	0%
30	CCN1C(=O)[C@H]2[C@@H](c3ccc(-c4cccc(Cl)c4)c(OC)c3)N3CCCC[C@@]3(C(=O)OC)[C@H]2C1=O	-1%	?	0%

(further entries)
no.	structure	RE007 growth inh	2A StopGo	SARS PLP yeast
31	CC(C)C[C@@H]1CN=C(N)N1C[C@@H]1CCCN1C[C@@H](C(C)C)N1C[C@@H](Cc2ccccc2)N(CCCC2CCCC2)C1=N	-4%	-6%	-9%
32	CCCCNc1c(-c2ccc(SC(C)CC)c(OC)c2)nc2ccc(C)cn12 (stereo not drawn)	?	22µM*	-15%
33	Cc1ccc(N=C2c3ccccc3C(=O)C2[N+](=O)[O-])cc1C (stereo not drawn)	-30%	15%	2%
34	Cc1cccc(C)c1NC(=O)CNC(=O)COC(=O)c1ccc(Cl)s1	-4%	-12%	2%
35	CC1CCCCC12NC(=O)N(CC(=O)OCc1ccc(Br)cc1)C2=O (stereo not drawn)	-18%	?	4%
36	O=C(O)CCC(=O)Nc1ccc(-c2csc(Nc3cccc4ccccc34)n2)cc1	-2%	-5%	0%
37	CC(Oc1cccnc1[N+](=O)[O-])C(=O)Nc1cccc(Cl)c1 (stereo not drawn)	-17%	-15%	2%
38	O=C(NCCCN1CCCC1=O)c1ccc(Cl)c(S(=O)(=O)N2CCCCC2)c1	2%	-23%	12%
39	Cc1cccc([C@@H]2[C@@H]3C(=O)N(Cc4ccccc4)C(=O)[C@@H]3[C@]3(Cc4ccc(Cl)cc4)C(=O)N(c4cccc(Cl)c4)C(=O)N23)c1	12%	-3%	2%
40	Cc1ccc(S(=O)(=O)N2CCN(CC(=O)Nc3ccnn3C3CCCC3)CC2)cc1	16%	-21%	1%
41	Cc1ccc(S(=O)(=O)Nc2ccc3c(c2)CC(=O)N([C@H](C)CO)C[C@H](C)[C@H](CN(C)Cc2ccc4c(c2)OCO4)O3)cc1	-4%	-4%	3%
42	CCN(CC(=O)Nc1c(F)cccc1F)C(=O)C1CC(=O)N(CCc2ccc(OC)c(OC)c2)C1 (stereo not drawn)	5%	-13%	-3%
43	CC(C)[C@H](NC(=O)c1ccccc1Cl)C(=O)Nc1ccc(S(=O)(=O)Nc2nccs2)cc1	3%	23%	2%
44	CCCn1c(C)cc(/C=C(\C#N)C(=O)OCC(=O)Nc2cccc(S(N)(=O)=O)c2)c1C	-4%	9%	0%
45	CCN(CC)C(=O)OCc1c(-c2ccccc2)ncc2ccccc12	-8%	-1%	-2%
46	CCOC(=O)c1nnn(-c2ccc([N+](=O)[O-])cc2[N+](=O)[O-])c1C	-7%	0%	-5%
47	Nc1cc2c(cc1Cl)N(Cc1ccccc1)C(=O)CO2	-6%	-27%	2%
48	Cc1ccc(S(=O)(=O)N2C[C@@H]3[C@H]4CC[C@H](C4)[C@@H]3[C@@H](C)[C@@H]2c2ccn(Cc3ccccc3)c2)cc1	27%	-13%	-10%
49	CC(C)C(=O)N[C@@H]1c2ccccc2CC[C@@H]1OCc1ccccc1	-4%	0%	?
50	C[C@H](NC(=O)c1[nH]cnc1C(=O)Nc1ccc(Cl)cc1)c1ccccc1	3%	-27%	-6%
51	CCOC(=O)CC/C(=N\NC(N)=O)c1ccc(OC)c(Cl)c1	14%	7%	-6%
52	CC[C@]12c3[nH]c4ccc(OC)cc4c3CCN1C(=O)C(CC(=O)NCc1cccc(C(F)(F)F)c1)C[C@@H]2C(=O)N1CCN(C(=O)c2ccco2)CC1 (stereo partly drawn)	-16%	-25%	-9%
53	CC(C)(C)OC(=O)CC[C@@H](C(=O)NCCCCCCCCCCC(=O)N1CCN(C(=O)OC(C)(C)C)CC1)n1cc(CCCCCNC(=O)OC(C)(C)C)nn1	1%	0%	-25%
54	Cc1ncc([N+](=O)[O-])n1CC(=O)N/N=C/c1ccc(F)cc1	-16%	12%	2%
55	O=C(C1CC(=O)N(C2CCCCC2)C1)N1CCc2ccccc21 (stereo not drawn)	4%	3%	2%
56	COc1ccc([C@H]2CC(=O)C=C(c3ccc(F)nc3)C2)cc1OC	8%	0%	0%
57	Cc1cc(S(=O)(=O)N2CCN(CC(=O)NCCc3cccs3)CC2)ccc1Br	-11%	?	0%
58	COc1ccc(-c2cn(CCC(=O)O)c(-c3ccncc3)n2)cc1	10%	-3%	0%
59	O=C(Cn1ccccc1=O)Nc1ccc(Cl)c(S(=O)(=O)N2CCCCC2)c1	-11%	?	0%
60	C=CCNCc1ccc(C(=O)NCCCCCCC)cc1[N+](=O)[O-]	-3%	-9%	1%

(list continues)
no.	structure	RE007 growth inh	2A StopGo	SARS PLP yeast
61	COc1cccc(C(=O)OCC(=O)Nc2ccc(N3CCOCC3)cc2)c1	-3%	-1%	-1%
62	COCCNC(=O)N1[C@H]2CC[C@@H]1C(C(=O)OC)=C(c1cccc(C#N)c1)C2	-22%	-16%	6%
63	Nc1nc2c(F)c(F)c(F)cc2s1	-13%	18%	-12%
64	Cc1ccc(N(C(=O)Cc2cccs2)C2C=CS(=O)(=O)C2)cc1Cl (stereo not drawn)	6%	-7%	-1%
65	C[C@@H]1CN([C@@H](C)CO)C(=O)c2cc(NC(=O)CCC(F)(F)F)ccc2O[C@H]1CN(C)S(=O)(=O)c1ccc(Cl)cc1	7%	15%	-6%
66	O=C(NNC(=O)c1cccs1)c1ccc(Cl)c(S(=O)(=O)N2CCCC2)c1	-4%	0%	0%
67	COc1cc(/C=C2\C(=O)N(c3ccc(NC(C)=O)cc3)N=C2c2ccccc2)ccc1O	-3%	?	1%
68	CS(=O)(=O)c1ccc(Cl)c(C(=O)Nc2ccc3nc(N4CCOCC4)sc3c2)c1	-9%	12%	0%
69	C[C@H](CO)N1C[C@H](C)[C@@H](CN(C)Cc2ccc(Oc3ccccc3)cc2)Oc2c(NS(=O)(=O)c3cn(C)cn3)cccc2C1=O	3%	19%	-4%
70	CCC1(c2ccccc2)NC(=O)N(CC(=O)NC2CCCCCC2)C1=O (stereo not drawn)	0%	7%	4%
71	COc1ccc(S(=O)(=O)N(C)C)cc1NC(=O)COC(=O)C1CC1	-11%	-7%	-3%
72	CC(C)(C)C1CCc2sc(C(=O)NNC(=O)CCl)cc2C1 (stereo not drawn)	28%	11%	?
73	CN(C)N(C(=O)c1cc(-c2cccs2)nn1-c1ccccc1)C1CCS(=O)(=O)C1 (stereo not drawn)	-1%	-26%	11%
74	COc1cccc(-c2sc3ccc(OC)cc3c2-c2ccc(OCCN3CCCC3)cc2)c1	-5%	?	-12%
75	Cc1ccc([C@H]2C(C(=O)O)=C[C@@H](CC3CCCC3)N2S(=O)(=O)c2ccc(C)cc2)cc1	-2%	-2%	0%
76	O=C1CCCC/C=C\C[C@H](CC(=O)N(CCO)Cc2ccccc2)C(=O)N2CCC[C@@H]2CO1	7%	-19%	1%
77	COc1ccc(CC(=O)NCc2n[nH]c(=S)n2-c2ccccc2)cc1	-3%	0%	-1%
78	CN(C)C(=O)/C(=C\c1ccc(-c2cccc([N+](=O)[O-])c2)o1)NC(=O)c1ccccc1	4%	-3%	-4%
79	CC[C@@]1(C(=O)OC)N[C@H](CN(C)C(=O)c2ccc(C(C)(C)C)cc2)[C@@H]2C(=O)N(Cc3ccccc3)C(=O)[C@@H]21	-5%	?	1%
80	COc1cccc(NC(=O)COC(=O)C2CC3CCCC(C2)C3=O)c1 (stereo not drawn)	-4%	-11%	-4%
81	C[C@H](CO)N1C[C@H](C)[C@@H](CN(C)Cc2ccccc2)Oc2c(NS(=O)(=O)c3ccc(F)cc3)cccc2C1=O	7%	71%[activator]	-5%
82	N[C@@H](Cc1ccccc1)C(=O)N1CCOCC1	-4%	6%	-2%
83	O=C(c1cc(-c2ccccc2)nc2ccccc12)N1CCN(C2CCS(=O)(=O)C2)CC1 (stereo not drawn)	4%	-13%	4%
84	Cc1ccc(-c2nc3c(c(=O)[nH]c(=O)n3Cc3ccccc3)n2C)o1	-3%	27%	-4%
85	Cc1nn(CC(=O)N2c3ccccc3NC(=O)C2(C)C)c(C)c1[N+](=O)[O-]	36%	-29%	-4%
86	Cc1cnc(C(=O)OCC(=O)N2CC(C)CC(C)C2)cn1 (stereo not drawn)	1%	-1%	1%
87	COC(=O)CN1C(=O)[C@H]2[C@@H](/C=C/c3ccccc3)N3C(=O)CN(Cc4ccccn4)C(=O)[C@@]3(Cc3ccccc3)[C@H]2C1=O	9%	-3%	-4%

Record cards, from the list above. Screens in order: RE007 growth inh, 2A StopGo, SARS PLP yeast
`Cc1ccc(-c2nc3c(c(=O)[nH]c(=O)n3Cc3ccccc3)n2C)o1` in the list: -3%, 27%, -4%
`CS(=O)(=O)c1ccc(Cl)c(C(=O)Nc2ccc3nc(N4CCOCC4)sc3c2)c1` in the list: -9%, 12%, 0%
`COc1cccc(NC(=O)COC(=O)C2CC3CCCC(C2)C3=O)c1` (stereo not drawn) in the list: -4%, -11%, -4%
`CC(C)(C)C1CCc2sc(C(=O)NNC(=O)CCl)cc2C1` (stereo not drawn) in the list: 28%, 11%, ?
`Cc1nn(CC(=O)N2c3ccccc3NC(=O)C2(C)C)c(C)c1[N+](=O)[O-]` in the list: 36%, -29%, -4%

Screening results (PubChem)
